MgrA DNA FP: alters Staphylococcus aureus MgrA binding to DNA. fluorescence polarization. inhibition, %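 (about 10 µg/mL by stock and volumes)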. 0.13% of 84,000 active;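 active = above 50% in either of two replicates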;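 note: 0% = protein plus DNA without compound and 100% = DNA alone without protein; higher means less MgrA bound to DNA so lower polarization; one replicate is shown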
S aureus helic: S. aureus DNA helicase inhibition. purified S. aureus helicase, fluorescence unwinding assay; about half of the hits fall short of the stated cut. inhibition, %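 (tested at about 80 µM)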. 0.05% of 120,000 active;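 active = both duplicates at 50% or more, or one of them with a favoured structure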;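 note: 0% = mean of negative control wells and 100% = mean of positive control wells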
An asterisk follows results filed as active; nt = no result given. Not all compounds are listed. The share of hits here may be higher or lower than overall.

SMILES | MgrA DNA FP | S aureus helic
O=C(O)CSC(c1ccccc1)c1ccccc1 | nt | -3
O=C(C1CCN(S(=O)(=O)N2CCCC2)CC1)N1CCC2(CC1)OCCO2 | nt | -9
Cc1cccc(CN2CCN(C(=O)COc3ccccc3)CC2)c1 | -6.0 | 0
CCOC(=O)C1=CC(=C2C(=O)NC(=O)NC2=O)c2ccccc2O1 | 2.2 | -5
CCOC(=O)C1=C(CN2CC=C(c3ccccc3)CC2)NC(=O)NC1c1ccc(OC)cc1 (stereo not given) | -1.2 | 3
Cc1nc2cc(Cl)ccc2c(=O)n1-c1ccncc1 | 0.1 | nt
N#Cc1cccs1 | nt | 6
OC(CNC1CCCC1)C(F)(F)F (stereo not given) | -0.9 | nt
Cc1cc(O)c(CN2CC=C(c3ccccc3)CC2)cc1C(C)C | nt | 4
C[C@@H]1O[C@@H](O[C@H]2C[C@@H](O)[C@]3(CO)C4C(CC[C@]3(O)C2)[C@@]2(O)CC[C@H](C3=CC(=O)OC3)[C@@]2(C)C[C@H]4O)[C@H](O)[C@H](O)[C@H]1O (stereo not given in full) | 3.3 | nt
COc1cc2c3c(c1OC)-c1cc(O)ccc1CC3NCC2 (stereo not given) | -3.6 | 8
O=C1NC(=S)N(c2ccccc2)C(=O)/C1=C/C=C/c1ccco1 | 80* | 4
CCSCc1cc(OC(=O)N(C)C)nc(-c2ccc(C(F)(F)F)cc2)n1 | -0.9 | nt
C1=CCC2CCC(C1)N2 | -4.2 | 12
CN1CCN(Cc2ccccc2)CC1 | -0.2 | 3
CC(C)CC(N(C)C)C1(c2ccc(Cl)cc2)CCC1 (stereo not given) | -1.3 | nt
CCOC(=O)C1=C(c2ccccc2)OC(N)=C(C#N)C12C(=O)Nc1ccccc12 (stereo not given) | -0.8 | nt
O=C(O)C1C2CC3CC(C2)CC1(n1ncc(N2CCOCC2)c(Cl)c1=O)C3 (stereo not given) | 0.0 | 15
N#CC(O[C@@H]1O[C@H](CO[C@@H]2O[C@H](CO)[C@@H](O)[C@H](O)[C@H]2O)[C@@H](O)[C@H](O)[C@H]1O)c1ccccc1 (stereo not given in full) | -1.3 | nt
Cc1c(C(=O)c2cccc3ccccc23)c2cccc3c2n1[C@H](CN1CCOCC1)CO3 | -1.2 | nt
OC(Cc1ccccc1)(Cc1ccccc1)C1CN2CCC1CC2 (stereo not given) | -0.8 | 7
COc1ccc(C(=O)O[C@H]2CC[C@@]3(C)[C@@H]4CC[C@H]5[C@]6(O)C[C@H](O)[C@@]7(O)[C@@H](CN8C[C@@H](C)CC[C@H]8[C@@]7(C)O)[C@]6(O)C[C@@]53O[C@]24O)cc1OC | 19 | nt
Cc1ccc(-n2c(C)nc3ccccc3c2=O)cc1 | nt | 13
FC(F)(F)c1ccc(NC2=NCCCS2)cc1 | 0.0 | nt
CC1CCC(NCCc2ccc3c(c2)OCO3)CC1 (stereo not given) | -2.3 | 11
CC(=O)Nc1ccccc1C(=O)OCc1ccccc1F | -1.2 | 4
CC(C)c1ccc(C=C2C(=O)NC(=O)NC2=O)cc1 | 6.8 | 1
CCN(CC)Cc1c[nH]c2ccccc12 | 1.7 | 4
CN1C(=C2C(=O)NC(=O)NC2=O)Sc2ccccc21 | 3.0 | -42
OP(=S)(c1ccncc1)c1ccncc1 | nt | -12

Part of the list above, as labelled records:
> FC(F)(F)c1ccc(NC2=NCCCS2)cc1
  MgrA DNA FP: 0.0
  S aureus helic: nt
> CCN(CC)Cc1c[nH]c2ccccc12
  MgrA DNA FP: 1.7
  S aureus helic: 4

Next compounds follow:
SMILES | MgrA DNA FP | S aureus helic
CC1(C)CC(=O)C2=C(C1)OC(N)=C(C(=O)OC(C)(C)C)C21C(=O)Nc2ccccc21 (stereo not given) | -1.8 | 4
O=C(O)CP(=O)(O)c1ccc(Cl)cc1 | 0.3 | 11
O=c1[nH]c2ccccc2c(=O)n1-c1ccccc1 | nt | -2
C[C@]12CCC(=O)C=C1CC[C@@H]1[C@@H]2C(=O)C[C@]2(C)C(=O)CC[C@@H]12 | 1.2 | nt
CN1C2CCC1CC(OC(=O)c1ccc(Cl)cc1)C2 (stereo not given) | nt | 31
COCc1cc(OC(=O)N(C)C)nc(-c2ccccc2)n1 | -2.4 | nt
CN1CCSC1=Nc1ccc(OC(F)F)cc1 | nt | 1
O=C(CNC1CCCCC1)c1ccc(O)c(O)c1 | nt | 25
COc1ccc(C(CN)CC(=O)O)cc1 (stereo not given) | -4.2 | 10
Cc1nn(-c2ccccc2)c2c1P(=S)(N1CCOCC1)N(C)C(c1ccccc1)=N2 (stereo not given) | nt | 13
CN1CCN(c2cc(Cl)c(C#N)cc2F)CC1 | -0.8 | -2
CCN1C(=O)NC(=O)/C(=C\c2cn(CC(=O)O)c3ccccc23)C1=O | nt | -30
O=c1cccc2n1CC1CNCC2C1 (stereo not given) | nt | 8
C/C=C/c1ccc2c(c1)OCO2 | nt | -10
CCC(C)[C@H]1O[C@]2(C=C[C@@H]1C)C[C@@H]1C[C@@H](C/C=C(\C)[C@@H](OC3C[C@H](OC)C(O[C@H]4C[C@H](OC)[C@@H](O)[C@H](C)O4)[C@H](C)O3)[C@@H](C)/C=C/C=C3\CO[C@@H]4[C@H](O)C(C)=C[C@@H](C(=O)O1)[C@]34O)O2 (stereo not given in full) | 2.5 | nt
CCOc1ccc(C2SCC(=O)Nc3c2c(=O)[nH]n3C(C)C)cc1 (stereo not given) | nt | -5
N#CC1=C(N)Oc2c(c(=O)oc3ccccc23)C1c1cccc(OCc2ccccc2)c1 (stereo not given) | -0.1 | nt
N#CCc1ccc(F)cc1 | nt | 16
NCCc1ccc(Cl)cc1 | nt | -5
O=c1cccc2n1CC1CC2CN(Cc2nnc(-c3ccc4c(c3)OCO4)o2)C1 (stereo not given) | nt | -17
CCOC(=O)C1=C(N)Oc2cc(O)ccc2C12C(=O)N1c3c(cccc32)C(C)CC1(C)C (stereo not given) | -0.9 | 9
Cc1nc(-c2ccccc2)nc(OC(=O)N(C)C)c1Oc1ccc(Cl)cc1Cl | -0.7 | nt
CCOc1cc2c(cc1OCC)-n1cccc1C(c1ccc(F)cc1)NC2 (stereo not given) | nt | 3
CCNc1nc2c(=O)[nH]sc2c2c1C(c1cccnc1)C(C#N)=C(N)O2 (stereo not given) | nt | -16
Clc1ccc(N2CCNCC2)cc1 | -1.1 | nt
Fc1ccc(C(OCCN2CCN(CCCc3ccccc3)CC2)c2ccc(F)cc2)cc1 | -4.7 | nt
CC(=O)N1CCCCC1c1cccnc1.O=[N+]([O-])O.[Ag] (stereo not given) | 5.2 | 6
CC1(C)CC(=O)c2cc(OCC(=O)N3CCN(Cc4ccccc4)CC3)ccc2O1 | 0.8 | 12
CC[C@H](CO)NC(=O)[C@@H]1C=C2c3cccc4[nH]cc(c34)C[C@H]2N(C)C1 | 2.6 | nt
C[C@]12CCC3C(CC[C@H]4CC(=O)CC[C@]34C)C1CCC2=O (stereo not given in full) | 3.3 | nt
Nc1ccc(C2(c3ccc(N)cc3)CCCCC2)cc1 | 0.5 | -16
CCc1[o+]c(-c2ccccc2)cc2c1CCCC2 | -1.1 | -7
COC(=O)C1=C(N)OC(C)=C(C(C)=O)C12C(=O)Nc1ccc(Br)cc12 (stereo not given) | 0.7 | nt
CC12CCC3C(CCC4=CC(=O)CCC43C)C1CCC2=O (stereo not given) | nt | 7
Cc1ccc(O)c(CN2CCN(c3ccccc3)CC2)c1 | nt | 2
CC(=O)O[C@H]1C(=O)[C@@]2(C)C([C@H](OC(=O)c3ccccc3)[C@]3(O)C[C@H](O)C(C)=C1C3(C)C)[C@]1(OC(C)=O)CO[C@@H]1C[C@@H]2O (stereo not given in full) | 3.3 | nt
COC(=O)c1cn(Cc2ccccc2C#N)c2ccccc12 | -0.3 | 4
Cc1ccc(NC2=NC(C)(C)CS2)cc1 | 0.6 | -13
O=C(Nc1nc2ccc3ccccc3c2s1)c1ccc(S(=O)(=O)N(CCCl)CCCl)cc1 | -0.3 | nt
CCOC(=O)C1=C(N)Oc2c(c(=O)oc3ccccc23)C1c1cccc(Cl)c1 (stereo not given) | -1.0 | nt
CC(CO)NC(=O)C1C=C2c3cccc4[nH]cc(c34)C[C@H]2N(C)C1 (stereo not given in full) | 1.3 | nt
COc1ccc2c(c1)c(C(=O)N1CCN(C)CC1)c(C)n2C | nt | 15
CCCCn1c(=O)c(C(=O)NC)c(O)c2ccccc21 | -2.3 | 6
O=C1NC(=O)C(=CC2CC=CCC2)C(=O)N1 (stereo not given) | 2.0 | nt
CCCOc1ccc(CCN)cc1Cl | 0.7 | 1
CC1(C)C2CC=C(CN3CCC(O)CC3)C1C2 (stereo not given) | -1.1 | 10
NC(CC(=O)O)C1CC=CCC1 (stereo not given) | 1.1 | nt
NCCc1cccs1 | nt | -13
O=C(C(Cc1ccccc1)NS(=O)(=O)c1ccc(F)cc1)N1CCC2(CC1)OCCO2 (stereo not given) | -2.0 | 15
COCCOC(=O)C1=C(N)OC(C)=C(C(=O)OC(C)C)C12C(=O)Nc1ccccc12 (stereo not given) | -2.2 | nt

Going on with the list:
SMILES | MgrA DNA FP | S aureus helic
OC1C2CCN(c3ccccc32)C1Cc1ccccc1 (stereo not given) | -6.2 | -5
COc1ccc2c(c1OC)C(=O)O[C@H]2[C@H]1c2cc3c(cc2CCN1C)OCO3 | 3.6 | nt
CCC1(CC)C(=O)NC(=NCc2ccc(OC)cc2)N(C)C1=O | 0.2 | -5
O=c1c2ccccc2nc(CSc2ncnc3nc[nH]c23)n1-c1ccc(Cl)c(Cl)c1 | 5.5 | nt
CC(Cc1c[nH]c2ccccc12)N(Cc1ccccc1)Cc1ccccc1 (stereo not given) | 1.2 | 6
Nc1ccncc1Cl | nt | -1
O=C1NC(=O)C2(C(=O)N1)C(c1ccc(Cl)cc1)NC(=S)NC2c1ccc(Cl)cc1 (stereo not given) | 0.0 | 13
Cc1ccc(C(=O)COC(=O)Cc2ccccc2)cc1 | 1.2 | -7
OC1CCNC2CCCCC12 (stereo not given) | -0.1 | 2
CCCN1CC2(COC)CC[C@H](OC)[C@@]34CC[C@H](COC)[C@@H](O)C[C@@](C)(O)C(O)([C@@H](OC)[C@H]23)[C@H]14 | -2.2 | 7
O=c1c2ccccc2nc(CNc2ccccc2)n1-c1ccccc1 | 5.2 | 18
Cc1ccc2c(c1)c1c3n2CNCC3CCC1 (stereo not given) | nt | -7
CC1(C)C(C(=O)Nc2ccccc2C(F)(F)F)C1(C)C | -2.5 | 4
S=c1[nH]c2ccccc2[nH]1 | 2.4 | nt
N#CSC12CN3CN(CN(C3)C1)C2 | -0.1 | -6
CCN(CC)C(=O)CN1CCCN(Cc2ccc(F)cc2)S1(=O)=O | nt | 7
O=C(CCC(=O)N1CC2CC(C1)c1cccc(=O)n1C2)N1CCCCCC1 (stereo not given) | nt | 26
Cc1nc2ccccc2c(=O)n1-c1ccc(Cl)cc1 | 0.3 | 8
CN1C(CC(O)c2ccccc2)CCCC1CC(O)c1ccccc1 (stereo not given) | 3.8 | nt
O=C(O)c1cncc(O)c1 | -7.5 | 11
CC1CCN(CC(=O)c2ccc(OC(F)F)cc2)CC1 | nt | 1
CC(=O)OC1CCC2C3CCC4CCC(=O)CC4(C)C3CCC12C (stereo not given) | -1.8 | nt
OC1(c2cccc(F)c2)CC2CCC(C1)N2Cc1nnnn1CCc1ccccc1 (stereo not given) | -1.2 | 6
Cc1[nH]c2ccccc2c1CCCNC1CCCCC1 | nt | 4
CC1(C)CSC(=NCc2ccccc2)N1 | -0.7 | 30
CCOc1cc2c(cc1OCC)-n1cccc1C(C1CCCCC1)NC2 (stereo not given) | -1.5 | 7
O=C1Nc2ccc(Cl)cc2C(c2cccc(O)c2)=NC1O (stereo not given) | -2.2 | nt
Cc1ccccc1N1CCNCC1 | -0.3 | nt
COC(CN)c1ccc2c(c1)OCCO2 (stereo not given) | nt | 14
C/C1=C/C(=O)O[C@@H]2C[C@@H](CC[C@H](C)/C=C\CC1)O[C@@](O)([C@@H]1CSC(=O)N1)C2 | 1.1 | nt
CN1CCN(c2ccc(-c3ccno3)cc2)CC1 | -1.6 | nt
O=C(Cn1ccc2ccccc2c1=O)NCC(=O)N1CCC2(CC1)OCCO2 | nt | -4
c1ccc2sc(Cc3cn4ccccc4n3)nc2c1 | nt | 6
O=[N+]([O-])/C=C/c1ccc(Cl)cc1 | -3.9 | nt
COC(=O)c1cc(C(O)(C(=O)OC)C(F)(F)F)c(/N=C/N(C)C)s1 (stereo not given) | nt | 5
Clc1ccc(CN2CCOCC2)cn1 | -1.8 | nt
CC(N)CCc1ccc(Cl)cc1 (stereo not given) | -0.6 | 10
OC1C2CCC1C(N1CCCC1)CC2 (stereo not given) | nt | -27
O=C(COc1ccc(OCc2ccccc2)cc1)NC1CN2CCC1CC2 (stereo not given) | nt | -4
O=C(CNC(=O)c1cccc(Cl)c1)Nc1ccc(Br)cc1C(=O)c1ccccc1 | 0.6 | 10
CCOC(=O)c1c(NS(=O)(=O)c2ccccc2)n(CCCOC)c2nc3ccccc3nc12 | nt | 2
Cc1cc(OCc2c(F)cccc2Cl)c2c3c(c(=O)oc2c1)CCCC3 | 4.0 | 3
C=CCN1C(=O)NC(=O)/C(=C/c2ccco2)C1=O | 30 | 16
CCOP(=S)(NC(C)(C)C)OCC | 3.1 | 7
Cc1ccc2c(c1)C1CN(C)CCC1N2Sc1ccc(Cl)cc1 (stereo not given) | 1.7 | -5

Full records, looked up by structure.
`Cc1cc(OCc2c(F)cccc2Cl)c2c3c(c(=O)oc2c1)CCCC3` across the screens: MgrA DNA FP = 4.0; S aureus helic = 3
`CCOC(=O)c1c(NS(=O)(=O)c2ccccc2)n(CCCOC)c2nc3ccccc3nc12` across the screens: MgrA DNA FP = nt; S aureus helic = 2
